High-throughput results deposited in PubChem by PCMD.
Biofilm kill mix: clotrimazole potentiators killing C. albicans biofilm, primary screen, 4-compound mixtures. C. albicans biofilm persisters + clotrimazole, fluorescence viability; primary screen in compound mixtures of four per well. inhibition, % at 7.6 µM. hit rate 0.02% among 120,000;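 active means inhibition above 30.3% in the primary screen of four-compound pools, then above 30% when the compound was retested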;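 further: compounds exposed to preformed 24 h biofilms for 48 h; the number belongs to the whole pool; some results filed as inactive read as strong as hits; inactives centre near 12; 0% = biofilm with clotrimazole alone and 100% = kill control; retested singly at about 60 µM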
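Test system: C. albicans biofilms. Buffer or medium: RPMI/MOPS medium, pH 7.0. Timing: 48 h compound exposure at 37 °C. Technique: Alamar Blue fluorescence. Evaluation: percent inhibition of biofilm viability.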
* = called active by the depositor. This is a subset; count on the stated rates, not on these rows.

SMILES	Biofilm kill mix
CCOc1ccc(-c2csc(NC(=O)c3cccc(N4C(=O)CCC4=O)c3)n2)cc1	19.0
Clc1ccccc1N/N=C/c1ccc2c(c1)OCO2	-4.0
Cc1cc(C)n(-c2cccc(C(=O)O)c2)n1	14.8
COc1cc(OC)c(-n2cc(-c3ccc(Cl)cc3)[nH]c2=O)cc1Cl	5.8
CN1CCN(S(=O)(=O)CC2(C)C3CCC2(C)C(=O)C3Br)CC1 (centres undefined)	13.8
Cc1ccccc1OCC(O)Cn1c(Br)nc2c1c(=O)n(C)c(=O)n2C (centres undefined)	5.2
Cc1ccc(SCCC(=O)Nc2ccc(OCc3ccccc3)cc2)cc1	14.4
O=C1/C(=C/c2ccccc2[N+](=O)[O-])COc2ccccc21	11.8
C/C=C\C=C\C(=O)Nc1cccc(C2=NOC3(C2)C[C@H](C(N)=O)N(C(=O)c2ccccc2C(=O)c2ccccc2)C3)c1 (some centres undefined)	0.5
Cc1ccc2nc(/C(C#N)=C\c3cc(O)ccc3[N+](=O)[O-])[nH]c2c1	13.5
CN(c1ccc(C(=O)NCc2cccs2)cc1)S(=O)(=O)c1ccccc1	5.9
CCOC(=O)C1=NN(c2ccc([N+](=O)[O-])cc2)CC1C(=O)OC (centres undefined)	-0.9
Cc1ccc(C(=O)CSc2cnc3ccccc3n2)cc1C	11.7
CC(C)(C)OC(=O)N/N=C/c1c[nH]c2ccccc12	12.4
Cc1c(N=c2scc(-c3ccccc3)n2CCO)c(=O)n(-c2ccccc2)n1C	18.6
CC1(C)CC(=O)C(C=NCCN2CCN(C3CC(=O)N(c4ccc(F)cc4)C3=O)CC2)=C(O)C1 (centres undefined)	7.8
CC1=C(C)C(=O)OC(C(C)C2CCC3C4CC=C5CC(OC6OC(COC7OC(CO)C(O)C(O)C7O)C(O)C(O)C6O)CC(O)C5(C)C4CCC23C)C1 (centres undefined)	20.4
CC(C(=O)NCC1CCCCC1)N(C)Cc1ccc(Cl)cc1 (centres undefined)	12.3
Cc1cccc2cc(CN(Cc3cccs3)C(=S)NCc3ccco3)c(=O)[nH]c12	21.3
CCCCC1=CC2=C(c3ccco3)C(=O)C(C)(OC(=O)c3ccc(OC)cc3)C(=O)C2=CN1Cc1ccccc1 (centres undefined)	19.2
O=C(COC(=O)c1cc([N+](=O)[O-])ccc1NCc1ccccc1)NC1CCCCC1	4.9
COc1ccc(NC(=S)Nc2cc(C)[nH]n2)cc1Cl	18.9
Cn1nc(C(C)(C)C)cc1NC(=O)Nc1ccc(Cl)cc1	8.6
CCOc1ccc(C2=C(C=C(C#N)C#N)C(c3ccccc3)c3ccccc3O2)cc1 (centres undefined)	19.0
CC(C)(C)c1nc2scc(-c3ccc(Br)cc3)c2c(=O)o1	14.1

Part of the list above, with bars between the fields:
SMILES | Biofilm kill mix
O=C(COC(=O)c1cc([N+](=O)[O-])ccc1NCc1ccccc1)NC1CCCCC1 | 4.9
CN(c1ccc(C(=O)NCc2cccs2)cc1)S(=O)(=O)c1ccccc1 | 5.9
Cc1cc(C)n(-c2cccc(C(=O)O)c2)n1 | 14.8

Returning to the listing; the 6 compounds before the break are reprinted first.
SMILES	Biofilm kill mix
CCCCC1=CC2=C(c3ccco3)C(=O)C(C)(OC(=O)c3ccc(OC)cc3)C(=O)C2=CN1Cc1ccccc1 (centres undefined)	19.2
O=C(COC(=O)c1cc([N+](=O)[O-])ccc1NCc1ccccc1)NC1CCCCC1	4.9
COc1ccc(NC(=S)Nc2cc(C)[nH]n2)cc1Cl	18.9
Cn1nc(C(C)(C)C)cc1NC(=O)Nc1ccc(Cl)cc1	8.6
CCOc1ccc(C2=C(C=C(C#N)C#N)C(c3ccccc3)c3ccccc3O2)cc1 (centres undefined)	19.0
CC(C)(C)c1nc2scc(-c3ccc(Br)cc3)c2c(=O)o1	14.1
COCCCN(C(=O)Nc1cccc(Cl)c1)C(C)c1ccccn1 (centres undefined)	-8.6
Cc1ccc(N2C(=O)CSC2c2cccnc2)c(Cl)c1 (centres undefined)	-0.3
c1ccc(-c2cc(-c3nnco3)c3ccccc3n2)nc1	16.4
O=C(OCn1nnc2ccccc2c1=O)c1ccc(O)cc1	12.3
CCc1ncc(/C=C2\C(=O)Nc3ccccc32)[nH]1	20.7
O=C(/C=C/c1ccccc1[N+](=O)[O-])Nc1cccnc1	17.5
N#C/C(=C\c1ccc(C(=O)O)cc1)S(=O)(=O)c1cc(Br)ccc1Br	16.3
CC1CCOC(c2coc3ccccc3c2=O)O1 (centres undefined)	18.2
CCNC(=S)NS(=O)(=O)c1ccc(C)cc1	13.9
CCC(C(=O)O)N1C(=O)/C(=C/c2cccn2C)SC1=S (centres undefined)	12.3
CN(C)C(=O)c1ccc(NC(=O)COc2ccc([N+](=O)[O-])cc2)cc1	2.6
CC(=O)C1=C(c2ccc(Br)cc2)C(=O)c2ccccc2C1=O	13.6
CCC(=O)N/C(N)=N/c1nc(C)c2cc(C)c(C)cc2n1	14.3
O=C(Nc1nnc(SCc2ccc(F)cc2)s1)c1ccccn1	11.7
CC(=O)c1sc(NC(=O)c2c(F)cccc2F)nc1-c1ccccc1	-1.7
S=C(NCCN1CCOCC1)Nc1ccc(Br)cc1	14.4
Cc1cccc(N2CCN(C(=O)COc3cccc4c3OC(C)(C)C4)CC2)c1C	13.4
Cc1c(C(=O)NC(C(C)C)C(C)C)cccc1[N+](=O)[O-]	13.3
Cc1ccc(C(=O)/C=C/c2cn(CC(O)CN3CCOCC3)c3ccccc23)cc1 (centres undefined)	3.5
CN(C)/C=C/C(=O)c1cccc(C(F)(F)F)c1	6.8
O=C(c1ccc(Sc2ccc(F)cc2)c([N+](=O)[O-])c1)N1CCOCC1	13.8
COC(=O)c1cc(NC(=O)Cc2ccccc2[N+](=O)[O-])ccc1Cl	18.2
CC(C)Cc1cc(C(=O)NCc2ccco2)no1	12.4
CC(C)[C@H](NC(=O)c1ccccc1)C(=O)OCC(=O)Nc1ccc(Cl)cc1C(F)(F)F	15.9
COc1cc(C(=O)NC2CCCC2)c(Br)c(OC)c1OC	8.4

Later entries.
SMILES	Biofilm kill mix
Cc1cc(Cl)ccc1NC(=S)NCCN1CCOCC1	12.7
Cc1ccc2nc(-c3ccccn3)cc(C(=O)NC(C)C(C)(C)C)c2c1 (centres undefined)	14.0
O=[N+]([O-])c1cc(/C=N/N2CCN(Cc3ccccc3)CC2)ccc1Cl	6.5
COc1ccc(Cc2n[nH]c(=S)n2NC(=O)Nc2ccc(C)cc2)cc1	8.3
COc1ccc(C2CC(c3cccs3)=Nc3ccccc3S2)cc1OC (centres undefined)	12.7
COC(=O)c1ccc(-n2ccnc2)cc1	6.6
CC(=O)NC(CC(=O)O)c1ccc(F)cc1 (centres undefined)	1.1
O=C(Nc1nc2ccsc2c(=O)s1)c1ccc(F)cc1	6.5
CCOC(=O)c1ccc(NC(=O)c2cc3c(C)nn(-c4ccccc4Cl)c3s2)s1	5.9
Cc1ccc(Nc2cc(-c3ccccc3)nc3ncnn23)cc1	8.4
COc1ccc(/C=N/NC(=O)c2cccc(Br)c2)cc1CSc1ccccn1	4.8
c1csc(-c2noc(CN3CCc4sccc4C3)n2)c1	22.5
COc1ccc(CN=C2NC(=O)CC(C(=O)Nc3cc(C)cc(C)c3)S2)cc1 (centres undefined)	20.5
CCOC(=O)C1CCN(C(=O)c2ccc(CNS(=O)(=O)c3ccc(OC)cc3)cc2)CC1	15.8
CC(=O)Nc1ccc(S(=O)(=O)Nc2cc(-c3ccccc3)nn2C)cc1	15.2
N#C/C(=C/c1ccc(N2CCOCC2)o1)C(=O)Nc1ccccc1	18.8
O=C(NC(=S)Nc1cc([N+](=O)[O-])ccc1O)c1cccnc1	-4.0
NC(=O)COC(=O)c1cccc2c1-c1ccccc1C2=O	18.6
COc1ccccc1N(CC(O)COc1ccc(C)cc1)S(=O)(=O)c1ccccc1 (centres undefined)	7.7
Cc1onc(-c2ccccc2Cl)c1C(=O)NNC(=O)c1nn(C)cc1Cl	13.9
COc1ccc(NC(=O)N2CCN(C(=O)C(Cc3ccc(F)cc3)NC(C)=O)CC2)cc1 (centres undefined)	21.3
CCOc1ccc(NC(=O)C2C(C(=O)O)C3(Cl)C(Cl)=C(Cl)C2(Cl)C3(Cl)Cl)cc1 (centres undefined)	-10.6
Oc1cccc(/C=N/NC(=S)Nc2cccnc2)c1O	5.9
NNC(=O)CNC(=O)CNS(=O)(=O)c1ccccc1	3.3
COc1cccc(NC(=S)N(CCc2c(C)[nH]c3ccccc23)Cc2ccco2)c1	15.2

Sorted by number of heavy atoms (rising): some entries from above
SMILES	Biofilm kill mix
O=C(Nc1nc2ccsc2c(=O)s1)c1ccc(F)cc1	6.5
O=C1/C(=C/c2ccccc2[N+](=O)[O-])COc2ccccc21	11.8
COc1ccc(C2CC(c3cccs3)=Nc3ccccc3S2)cc1OC (centres undefined)	12.7
CC1=C(C)C(=O)OC(C(C)C2CCC3C4CC=C5CC(OC6OC(COC7OC(CO)C(O)C(O)C7O)C(O)C(O)C6O)CC(O)C5(C)C4CCC23C)C1 (centres undefined)	20.4

The list goes on:
SMILES	Biofilm kill mix
Cc1ccc(Nc2nnc(SC(C)C(=O)Nc3c(C)n(C)n(-c4ccccc4)c3=O)s2)cc1 (centres undefined)	15.6
COc1ccccc1CN(C)CC(=O)Nc1ccccc1-c1ccccc1	5.1
CC(C)CNC(=O)COc1ccccc1[N+](=O)[O-]	17.4
O=C(Cc1ccccc1)Nc1ccc(NC(=O)c2cccs2)c(Cl)c1	13.6
CCOC(=O)c1sc2cccc(Cl)c2c1N	11.5
Cc1nnc(NC(=O)CSc2nccn2-c2ccc(F)cc2)s1	27.0
Cc1cc(-c2nnc(-c3cccc(C(F)(F)F)c3)o2)no1	21.4
C/C(=N\NC(=O)c1cccnc1)c1cccc([N+](=O)[O-])c1	12.1
O=C(Nc1cccc(Cl)c1)c1cc([N+](=O)[O-])ccc1N1CCN(CCO)CC1	9.0
Cc1nnc(SCC(=O)N2c3ccccc3C(C)(c3ccc(Cl)cc3)CC2(C)C)s1 (centres undefined)	-0.6
COc1ccc(Nc2nc(N)c([N+](=O)[O-])c(NCCO)n2)cc1	-11.2
Brc1ccc(/C=N/Nc2ccccc2)cc1	11.2
Cc1cc(C(=O)NC(=S)Nc2cccc(C(=O)O)c2C)ccc1[N+](=O)[O-]	1.3
CCOC(=O)C(O)(CC(=O)c1ccc(Cl)cc1)C(=O)OCC	4.1
Cc1cc(C)c(NC(=O)CO/N=C2\CCCc3nonc32)c(C)c1	-5.7
O=C(/C=C/c1ccc(Br)cc1)Nc1ccc(S(=O)(=O)Nc2ncccn2)cc1	6.0
O=[N+]([O-])c1ccc(C(O)C(CO)NC(=S)Nc2ccccc2)cc1 (centres undefined)	18.2
Cc1sc2nc(CN3CCCCC3)nc(Cl)c2c1C	18.8
Cn1cnnc1Sc1ccc(S(C)(=O)=O)cc1[N+](=O)[O-]	17.2
CCCCC1=CC2=CC(=O)C(C)(OC(=O)c3cnc4ccccc4n3)C(=O)C2=CO1 (centres undefined)	17.8
NC1=NC(=O)/C(=C/c2ccsc2)S1	9.6
C=C(C)c1cccc(C(C)(C)NC(=O)Nc2cc(C)ccn2)c1	11.3
NC(=O)[C@@H]1CCNc2c(I)cc([N+](=O)[O-])cc2C(=O)N[C@@H](CO)C(=O)N[C@@H](Cc2ccc(O)cc2)C(=O)N1	13.6
COc1ccc(/C=C/CN2CCN(CCc3ccccc3)C(CCO)C2)cc1 (centres undefined)	15.6
Cc1cc(/C(N)=N/OC(=O)c2ccc(Cl)cc2)no1	16.5

Going on with the list.
SMILES	Biofilm kill mix
CCOC(=O)C(=O)Nc1nnc(Cc2ccc(OC)c(OC)c2)s1	13.0
Cc1c(NC(=O)COC(=O)c2ccc(S(=O)(=O)N3CCOCC3)cc2)c(=O)n(-c2ccccc2)n1C	10.8
CCN(CC)CC(=O)N1c2ccccc2Sc2ccc(Cl)cc21	10.8
Cc1c(CC(=O)O)c(=O)oc2c(C)c(OCc3nn[nH]n3)ccc12	24.1
C/C(=C\c1ccccc1)C(=O)NCCN1CCOCC1	3.6
COc1ccc(CN(C(=O)c2nsc(Cl)c2Cl)C(C(=O)NC2CCCC2)c2ccc(C)cc2)cc1 (centres undefined)	8.1
Cc1cc(C(=O)COC(=O)c2nccnc2N)c(C)n1C	12.0
CCOc1cc(C(=O)OCC(=O)Nc2cccc(C)c2)ccc1OCC(=O)N1CCOCC1	6.4
O=C1CCCCC1C(=O)c1cn(-c2ccc(Cl)c(Cl)c2)nn1 (centres undefined)	10.5
N#CC(c1nc2ccccc2nc1N1CCOCC1)S(=O)(=O)c1ccccc1 (centres undefined)	15.8
C[C@H]1CC[C@H]2C(=O)N3[C@H](c4ccccc4Br)[C@@H](C)CC[C@H]3C(=O)N2[C@@H]1c1ccccc1Br	13.5
O=C1c2cccc3cccc(c23)C(=O)N1Cc1ccco1	3.2
C/C(CC(=O)Nc1ccccc1Cl)=N\NC(=O)C(=O)NCCO	15.2
Cc1cccc(NC(=O)/C(C#N)=C/c2cn(CC(=O)NCc3ccco3)c3ccccc23)c1C	7.2
CCCc1cc(=O)oc2c(C)c(OCc3nn[nH]n3)ccc12	2.7
O=C(N/N=C1\CCCc2ccccc21)c1ccc([N+](=O)[O-])cc1	8.1
Cc1cccc(NNC(=O)c2c(F)cccc2Cl)c1	13.8
O=C(Nc1ccc(Cl)c(Cl)c1)c1cccc(S(=O)(=O)NCc2cccnc2)c1	16.7
Cc1[nH]c2c(C)cccc2c1CC(=O)O	19.1
COC(=O)c1ccc(Oc2ccc(C(F)(F)F)cn2)cc1	10.4
CNS(=O)(=O)c1cc(Br)ccc1S(=O)c1ccccc1C(=O)O (centres undefined)	22.6
C#CCNC(=O)C1CCN(c2cc(C)nc(-c3ccccc3)n2)CC1	5.4
COc1ccc(OC)c(-c2csc(NC(=O)CSc3ccccc3)n2)c1	8.1
COc1cc(OC)cc(C(=O)Nc2nc(-c3ccccc3)c(-c3ccccc3)o2)c1	13.4
CC(=O)Nc1nnc(C2=COCCO2)o1	6.0
COc1cc(S(=O)(=O)NCc2ccccc2)ccc1Br	12.3
